Bioassay records (PubChem BioAssay)
TRPV1 potentiator: potentiators of human vanilloid receptor 1 (TRPV1); TRPV1-expressing cells, Fluo-8 calcium influx, capsaicin EC20 potentiation; host cell line not named in the record; control for the full effect not named in the record; 320,000 compounds, 0.02% hits; potentiation, % at 8.33 µM; active means potentiation above 80%; inconclusive means 30% to 80%; inactive means below 30%; further: 0% is about no effect
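Cells expressing TRPV1 were dye-loaded with Fluo-8 and read kinetically: 10 s baseline, 3 min after compound (agonist portion), then 2 min after EC20 capsaicin (allosteric enhancer portion). Calcium-bound dye fluorescence at 480/520 nm.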
TRPML1 agonist: agonists of human TRPML1 channel; Q9GZU1; TRPML1-expressing cells, Ca2+ dye fluorescence, FDSS; host cell line not named in the record; reference of the full effect not given here; activation, % (no concentration beside the values); 410,000 compounds, 0.12% hits; in the data active = activation above about 50%; inconclusive = about 30% to 50%; inactive = below about 30%; further: 0% is about no effect; the text of the record puts the active cut at 80%
Target sequence (Q9GZU1 whole entry, looked up): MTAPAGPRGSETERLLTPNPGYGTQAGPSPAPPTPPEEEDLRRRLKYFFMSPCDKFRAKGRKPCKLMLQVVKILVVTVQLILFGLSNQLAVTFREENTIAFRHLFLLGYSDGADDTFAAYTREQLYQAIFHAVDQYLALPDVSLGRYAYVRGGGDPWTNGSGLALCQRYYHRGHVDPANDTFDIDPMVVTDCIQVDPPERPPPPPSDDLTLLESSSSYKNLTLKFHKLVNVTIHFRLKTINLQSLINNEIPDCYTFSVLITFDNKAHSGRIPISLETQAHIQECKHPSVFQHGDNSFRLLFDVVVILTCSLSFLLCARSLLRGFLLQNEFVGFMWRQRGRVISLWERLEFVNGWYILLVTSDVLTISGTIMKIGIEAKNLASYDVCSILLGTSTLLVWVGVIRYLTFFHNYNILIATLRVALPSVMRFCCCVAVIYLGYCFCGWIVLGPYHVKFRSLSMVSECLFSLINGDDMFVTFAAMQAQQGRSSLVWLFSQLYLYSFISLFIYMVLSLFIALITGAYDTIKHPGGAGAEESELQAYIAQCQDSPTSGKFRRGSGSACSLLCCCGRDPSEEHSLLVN
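Tet-induced TRPML1-DL cells, 1,500 per well, cultured overnight, were loaded with a no-wash Ca2+ dye for 45–90 min. Calcium fluorescence was recorded on the FDSS for 110 s after compound addition, before the EC80 agonist (4 uM 54-4) was added.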
TRPML1 blocker: human mucolipin-1 channel inhibition. Q9GZU1. TRPML1-inducible cells, Ca2+ dye fluorescence, FDSS; stronger effect = lower value; inhibition of EC80 agonist-evoked calcium signal. activity change, negative = inhibition, % (no concentration beside the values). 390,000 compounds, 0.02% hits; in the data active means activity change below about -50%; inconclusive means about -30% to -50%; inactive means above about -30%;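 further: stimulus is agonist 54-4 at its EC80 concentration; on the % scale 0 is the no-effect control and ±100 the full control effect; compound concentration not given in the record; the text of the record puts the active cut at -80%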
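Calcium fluorescence in TRPML1-DL cells induced overnight with Tet: a 110 s read after compound pin addition, then a 110 s antagonist read after challenge with 54-4 at 4 uM final (EC80).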
PINK1 modulator: changes PINK1 expression; Potency, µM (series often up to 76.6 µM), without a hit: at the top dose activation (PINK1 increase), most hits filed as activators; PINK1 immunofluorescence, high-content cytometry, 24 h; AID 624263; 410,000 compounds, 0.2% hits; active = well fitted activation curve with a large enough effect; inconclusive = small, poorly fitted or top-dose-only effect; inactive = flat fitted curve, though single readings scatter; cell line not stated here;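 further: potency means the concentration at half of the fitted maximal effect; % of control where 0% means no effect; nearly all actives have a fitted effect of over 65% in size; a mitochondrial uncoupler was the plate control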
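PINK1 protein, normally rapidly degraded, was detected by immunofluorescence after 24 hour compound treatment of a stable cell line. Titration data (5 concentrations) came from laser-scanning cytometry, with CCCP-treated wells as controls.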
Menin MLL FP FL: inhibitors of human menin-MLL interaction, wild-type MLL peptide | Fluorescence polarization, fluorescein-MLL peptide displacement from menin | FP activity change, % at 61.4 µM | 290,000 tested, under 10 active | AID 1766; inconclusive = falling polarisation curve, or a change in total fluorescence; inactive = total fluorescence flat and polarisation flat or rising; no compound was filed as active; the % refers to the polarisation; negative = inhibition;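 further: % of control where 0% means no effect; inhibitors lower the polarisation; unlabelled MLL peptide was the positive control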
ClpP mod: qHTS Assay for Activators of ClpP; ATP-dependent Clp protease proteolytic subunit (Bacillus subtilis (strain 168)), P80244; purified B. subtilis ClpP, FRET peptide cleavage, 20 min; Potency, µM (titrated, usually from 57.5 µM), inactives show at the highest dose activity change, negative = active; 340,000 compounds, 1.9% hits; AID 651965, 2013; active = well fitted falling curve with a large enough effect; inconclusive = small, poorly fitted or top-dose-only effect; inactive = no such curve, though single readings can be large or run the other way; further: potency means the concentration at half of the fitted maximal effect; the source files actives as falling curves though it sought activators and does not explain the sign; nearly all actives have a fitted effect of over 65% in size; many hits overshoot -100%
Target sequence (P80244 whole entry, looked up): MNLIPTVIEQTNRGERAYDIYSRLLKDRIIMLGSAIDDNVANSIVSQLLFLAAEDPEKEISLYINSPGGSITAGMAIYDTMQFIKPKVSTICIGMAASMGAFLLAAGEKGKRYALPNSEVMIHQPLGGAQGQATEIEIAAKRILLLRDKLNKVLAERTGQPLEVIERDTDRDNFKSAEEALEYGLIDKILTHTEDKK
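Purified B. subtilis ClpP, 10 microg/mL final in Tris/HCl pH8 with KCl, BSA, glycerol and Tween-20, cleaved an Abz/nitrotyrosine-quenched decapeptide. Fluorescence (ex 320, em 430) was read at 0 and 20 min at room temperature. Delta was normalized to 5.8 microM ADEP and DMSO/no-enzyme controls.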
Sfp PPTase inh: inhibitors of Bacillus subtilis Sfp phosphopantetheinyl transferase; Biochemical Sfp PPTase activity, qHTS; Q9F4F7; 310,000 compounds, 3.5% hits; Potency, µM, for inactives: max response, negative = inhibition, most hits filed as inhibitors; active means well fitted inhibition curve with a large enough effect; inconclusive means small, poorly fitted or top-dose-only effect, or another doubt; inactive means no such curve, though single readings can be large or run the other way;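 further: the enzyme is Sfp with the accession as filed and its product quenches rhodamine fluorescence; potency means the concentration at half of the fitted maximal effect; 0% = enzyme reaction without inhibitor and -100% = no enzyme wells; top concentration of the series not given in the record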
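Buffer: 50 mM Hepes-Na pH 7.6, 10 mM MgCl2, 0.01% Nonidet P-40, 0.01% BSA. Enzyme 15 nM, pre-exposed to compound 15 min; substrates then added and fluorescence change tracked over 30 min.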
* marks the source's active call; other numbers are inactive results; ? = inconclusive; . = not tested or not shown; [ ] = remark or other dose.

SMILES	TRPV1 potentiator	TRPML1 agonist	TRPML1 blocker	PINK1 modulator	Menin MLL FP FL	ClpP mod	Sfp PPTase inh
CC(C)c1ccc(S(=O)(=O)N2CCC(C(=O)NCC3(N(C)C)CCCCC3)CC2)cc1	0	-0.4	-14	-2.3%	.	-2.3%	7%
COc1nc(Nc2nc3ccccc3c(=O)[nH]2)nc2ccc(C)cc12	-6	1.0	-17	9.4%	-0.3	1.7%	-19%
O=C(c1cnn2c(C(F)F)cc(C3CC3)nc12)N1CCOCC1	-10	-0.6	9	-1.4%	0.0	-2.0%	13%
COc1ccc2c(c1)c1c(c(=O)n(-c3ccccc3C)c(=O)n1Cc1c(F)cccc1Cl)n2C	.	0.0	-10	1.4%	.	-14%	.
CSCCC(NC(=O)c1ccccc1Cl)C(=O)OCC(=O)N1CCCC1=O (centres undefined)	6	-0.8	-7	0.9%	.	1.1%	.
CSc1ccccc1NC(=O)c1c(C)noc1C	-4	-0.4	8	0.8%[38.3 µM]	6.0	5.0%	11%
O=C(c1ccc(Cl)c(S(=O)(=O)N2CCCCCC2)c1)N1CCN(c2ccccc2O)CC1	-1	-1.0	18	0.2%	-2.9	?	6%
CC1CCN(CCC(=O)Nc2ccc3c(c2)CCC3)CC1	7	1.3	12	-4.2%[38.3 µM]	-2.0	-0.7%	3%
O=c1[nH]c(=O)c2nnc(N/N=C/c3ccccc3F)nc2[nH]1	28	1.2	6	0.7%	2.8	-2.0%	-18%
O=C(CCCN1C(=O)c2cccnc2C1=O)Nc1ccc(Br)cc1	0	-0.5	29	2.3%	0.2	.	7%
O=C(COc1ccc(S(=O)(=O)NCc2ccccc2)cc1)NCc1cccnc1	7	-0.3	5	3.0%	-5.1	.	12%
COC(=O)CC1Oc2ccc(F)cc2-n2cc(-c3ccc(Cl)cc3)nc21 (centres undefined)	.	3.6	30	12%	.	-26%	.
COc1ccc([C@@H]2C[C@H]3[C@@H](CN2S(=O)(=O)c2ccccc2)C(=O)C[C@@H](c2ccccc2F)N3S(=O)(=O)c2ccc(C)cc2)cc1	.	0.2	-9	0.7%	.	0.1%	.
CC(=O)Nc1cccc(-c2ccnc3c2CC(C(=O)Nc2cccc(NS(C)(=O)=O)c2)O3)c1 (centres undefined)	.	0.0	-7	-0.7%	.	-11%	.
COC(=O)C1=C(C)NC(C)=C(C(=O)OC)C1C(=O)OCC(=O)c1ccc(F)cc1	10	0.1	18	-0.5%	-3.2	32µM*	13%
Cc1ccc(-n2cc(CNCCN3CCOC3=O)c(-c3ccc(F)cc3)n2)cc1	-10	0.0	-24	3.4%	3.0	-4.3%	?
COC(=O)C1=C(C)NC(=O)C1(Nc1ccc(Cl)cn1)C(F)(F)F (centres undefined)	24	0.4	14	-4.3%[38.3 µM]	-4.3	-0.3%	-3%
CCOc1cc(/C=C/C(=O)c2ccc(C)cc2)ccc1OCC(=O)N(C)C	1	-0.6	3	-1.6%	8.1	34%	-11%
CCN(CC)S(=O)(=O)c1ccc2c(c1)nc(CN(C)C(=O)Nc1ccc(C)c(F)c1)n2C	.	-0.4	-8	0.1%	.	0.5%	.
CC(=O)N=Nc1[nH]c(N)c2ccccc12	-3	0.1	-4	2.5%	0.7	.	-4%
CCN(CCN(C)C)C(=O)c1ccc2nc(C)c(N(C)C(=O)CCc3ccccc3)n2c1	.	-1.0	.	-0.7%	.	-3.0%	.
COC(=O)C1(Cc2ccc(O)c(CC3OC3(C)C)c2)OC(=O)C(O)=C1c1ccc(O)cc1 (centres undefined)	-8	.	.	-1.1%	-1.3	-3.4%	79µM*
N#Cc1cccc(NC(=O)N2CC3(CCN(C(=O)c4cccc(F)c4)CC3)C2)c1	.	.	.	-0.4%	1.3	.	1%
CC1(c2nnnn2Cc2ccccc2)CCC(=O)N1Cc1cccc(C(F)(F)F)c1 (centres undefined)	.	2.7	.	-0.5%	.	-0.6%	.
O=C1NC[C@H](CCCCN2C[C@H](Cc3ccc(O)cc3)N(CCc3ccccc3)C(=O)C2=O)N(CCc2ccc(O)cc2)C1=O	.	-0.3	.	-0.1%	.	-3.2%	.
CN1CCN(c2ncc3ncc(=O)n(C4CC4)c3n2)CC1	.	.	.	-0.3%	3.4	.	3%
O=c1[nH]nc(-c2n[nH]c(=O)o2)o1	.	-0.3	-9	0.6%	.	-4.8%	.
Cc1nn(Cc2ccc([N+](=O)[O-])cc2)c(=O)n1-c1cccc(F)c1	-11	-0.1	10	-0.1%	5.6	-3.1%	21%
COc1ccc(CC(=O)NCc2ccccc2)cc1OC	-23	0.2	-9	4.3%	-14	.	21%
CC(C)(C)OC(=O)NC(Cc1ccccc1)C(=O)NC1COC2CC(n3ccc(=O)[nH]c3=O)OC12 (centres undefined)	.	0.2	-6	.	1.1	.	1%
COc1ccc(-c2nnc(SCC(=O)N/N=C/c3ccccc3C(=O)O)n2-c2ccccc2)cc1	0	-0.3	9	-0.9%	0.2	-2.2%	19%
CC(=O)Nc1ccc(OCC(O)CN2CCCCC2C)cc1 (centres undefined)	6	0.4	19	-1.1%	6.7	0.9%	22%
COc1ccc(Cl)cc1NC(=O)Nc1ccccc1C(N)=O	4	1.7	4	1.0%	-2.5	-2.1%	1%
Cc1cccc(C)c1OCCCN1CCCC1	-5	-0.3	26	-2.8%	2.8	1.2%	-15%
Oc1c(Br)cc(Cl)cc1C=Nc1ccccc1Br	-6	-0.1	25	1.0%	?	-0.8%	-25%
COc1ccc(O)c(/C=C(\C#N)C(=O)Nc2cccnc2)c1	3	0.4	37	-1.4%	1.6	-2.7%	14%
CC(C)(C)OC(=O)N1CCC(c2c(C(=O)NCCN3CCOCC3)cnn2-c2ccc(F)cc2)CC1	.	1.2	5	0.6%	.	-2.2%	.
Cc1cccc(CN2C[C@]34CC[C@@H](C[C@@H]3S2(=O)=O)O4)c1	-3	-0.3	-16	0.8%	0.3	-3.0%	9%
COC(=O)C1Sc2[nH]c(=O)sc2C(c2ccc(Cl)cc2)C1C(=O)OC (centres undefined)	.	0.3	0	2.0%	4.3	-3.3%	-12%
O=C(CS(=O)(=O)Cc1ccccc1)c1ccccc1	.	2.9	5	-0.4%	.	-1.2%	.
Cc1ccc(NCc2nnc(SC(C)C(=O)N/N=C/c3ccc(C)o3)n2-c2ccccc2)cc1 (centres undefined)	29	-0.9	-8	-0.3%	1.1	-4.1%	12%
COc1cc(C2C(C#N)=C(N)OC3=C2C(=O)CC(C)(C)C3)ccc1OC(=O)N1CCOCC1 (centres undefined)	-3	0.2	-20	.	1.8	-0.1%	17%
CCOC(=O)N1CCN(C(=O)CN(c2ccccc2OC)S(=O)(=O)c2ccc(C)cc2)CC1	-15	1.0	32	3.0%[38.3 µM]	0.8	-1.4%	-8%
O=C(CNC(=O)c1ccc(F)cc1)NCc1ccc(Cl)cc1	-31	1.3	0	0.9%	-4.4	.	18%
CCOc1ccc(CCNC(=O)c2cn(CC)c3ccc(S(=O)(=O)N4CCc5ccccc5C4)cc3c2=O)cc1OCC	.	-0.6	-10	3.2%	.	?	.
O=c1c2c(nc3n1CCCCC3)sc1c(O)c(Br)ccc12	?	0.7	-26	15%[38.3 µM]	1.6	-2.1%	-22%
COc1ccc(-n2c(=O)c3c4c(sc3n(Cc3ccc(F)cc3)c2=O)CCCC4)c(OC)c1	.	-1.1	27	1.2%	.	-1.1%	.
CCOC(=O)/C(C#N)=C/Nc1ccccc1NS(=O)(=O)c1ccc(C)c(C)c1	-1	2.3	5	4.3%	5.6	.	9%
O=C(NCc1cccs1)c1ccc(CSc2nc3cccnc3n2Cc2ccc(F)cc2)cc1	.	-0.4	6	1.1%	.	4.0%	.
Fc1ccc2c(c1)C(c1ccncc1)=NNC(c1ccc(Br)cc1)=N2	6	0.4	8	4.2%	1.8	-8.6%	8%
O=C(O)CCCn1c(=O)c2cccn2c2ccc(F)cc21	-3	0.9	-2	-0.1%	-1.8	-7.6%	18%
CSCCC(NC(=O)c1ccccc1)C(=O)N/N=C(\C)c1ccccc1 (centres undefined)	1	2.1	3	8.0%	3.2	3.9%	8%
COc1ccc(CCNC(=O)c2cc3cccc(OC)c3oc2=O)cc1OC	24	0.3	-2	4.0%	0.6	1.2%	8%
CCOCCC(=O)Nc1ncc(S(=O)(=O)c2ccc([N+](=O)[O-])cc2)s1	.	3.8	-13	6.2%	.	-0.3%	.
O=C(Nc1ccccc1)c1sc2cc(C(F)(F)F)cnc2c1-c1cccs1	-16	1.0	24	5.8%	2.5	32µM*	1%
CCCNC(=O)C1(C)CCN(Cc2cc(-c3ccccc3)on2)C1 (centres undefined)	.	1.8	.	0.4%	.	-2.4%	.
Cc1ccc2c(c1)c1ccc3c(c1n2C)C(=O)C=CC3=O	?	0.9	-3	-1.7%	16	0.1%	2.5µM*
CCOc1ccc2oc(C(=O)N(C)CC(=O)Nc3ccc(OCC)c(OCC)c3)c(C)c2c1	13	0.4	-23	-1.7%	.	1.4%	.
CC(C)CC1C(=O)N(Cc2cn(CCC3OCCCO3)nn2)CCS(=O)(=O)N1Cc1ccc(-c2ccccc2)cc1 (centres undefined)	.	0.3	-8	-0.2%	.	0.1%	.
COc1cccc(NC(=O)C2CCN(S(=O)(=O)c3ccc4c(c3)CC(C)N4C(C)=O)CC2)c1 (centres undefined)	28	-0.5	-18	4.2%	0.4	2.0%	17%
O=C(C[C@H]1C[C@@H]2c3cc(NC(=O)c4cccnc4)ccc3O[C@@H]2[C@H](CO)O1)NCc1ccncc1	.	-0.6	-8	0.0%	.	-17%	.
CCOC(=O)c1c(NC(=O)COC(=O)c2nc(Cl)ccc2Cl)sc(C(=O)N(C)C)c1C	9	0.6	-7	-0.1%	.	3.1%	.

Structural class: those above with a furan ring, fused or not
SMILES	TRPV1 potentiator	TRPML1 agonist	TRPML1 blocker	PINK1 modulator	Menin MLL FP FL	ClpP mod	Sfp PPTase inh
Cc1ccc(NCc2nnc(SC(C)C(=O)N/N=C/c3ccc(C)o3)n2-c2ccccc2)cc1 (centres undefined)	29	-0.9	-8	-0.3%	1.1	-4.1%	12%
CCOc1ccc2oc(C(=O)N(C)CC(=O)Nc3ccc(OCC)c(OCC)c3)c(C)c2c1	13	0.4	-23	-1.7%	.	1.4%	.
